# ClpP mod – qHTS Assay for Activators of ClpP; ATP-dependent Clp protease proteolytic subunit (Bacillus subtilis (strain 168)), P80244; purified B. subtilis ClpP, FRET peptide cleavage, 20 min; Potency, µM (doses to about 57.5 µM), without a hit: top-dose activity change, negative = active; 340,000 compounds, 1.9% hits; AID 651965, 2013; active = well fitted falling curve with a large enough effect; inconclusive = small, poorly fitted or top-dose-only effect; inactive = no such curve, though single readings can be large or run the other way; note: potency is the fitted concentration of half-maximal effect; the source files actives as falling curves though it sought activators and does not explain the sign; nearly all actives have a fitted effect of over 65% in size; many hits overshoot -100%
# Target sequence (P80244 whole entry, looked up): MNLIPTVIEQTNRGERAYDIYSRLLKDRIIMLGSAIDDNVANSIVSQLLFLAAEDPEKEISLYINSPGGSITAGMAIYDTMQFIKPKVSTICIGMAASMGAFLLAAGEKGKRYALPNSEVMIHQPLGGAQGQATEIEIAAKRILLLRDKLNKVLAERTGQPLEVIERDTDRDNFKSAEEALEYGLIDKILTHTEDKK
#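 FRET quenching reversal measured ClpP activation: 10 microg/mL B. subtilis ClpP at pH 8 with the FRET-FV decapeptide, read at 430 nm after 320 nm excitation. The 20-min minus 0-min signal was scaled between DMSO/no-enzyme wells and ADEP (5.8 microM final).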
# TRPV1 PAM – potentiators of human vanilloid receptor 1 (TRPV1); TRPV1-expressing cells, Fluo-8 calcium influx, capsaicin EC20 potentiation; host cell line not named in the record; control for the full effect not named in the record; potentiation, % at 8.33 µM; Q8NER1; 320,000 compounds, 0.02% hits; active means potentiation above 80%; inconclusive means 30% to 80%; inactive means below 30%; note: 0% is about no effect
# Target sequence (Q8NER1 whole entry, looked up): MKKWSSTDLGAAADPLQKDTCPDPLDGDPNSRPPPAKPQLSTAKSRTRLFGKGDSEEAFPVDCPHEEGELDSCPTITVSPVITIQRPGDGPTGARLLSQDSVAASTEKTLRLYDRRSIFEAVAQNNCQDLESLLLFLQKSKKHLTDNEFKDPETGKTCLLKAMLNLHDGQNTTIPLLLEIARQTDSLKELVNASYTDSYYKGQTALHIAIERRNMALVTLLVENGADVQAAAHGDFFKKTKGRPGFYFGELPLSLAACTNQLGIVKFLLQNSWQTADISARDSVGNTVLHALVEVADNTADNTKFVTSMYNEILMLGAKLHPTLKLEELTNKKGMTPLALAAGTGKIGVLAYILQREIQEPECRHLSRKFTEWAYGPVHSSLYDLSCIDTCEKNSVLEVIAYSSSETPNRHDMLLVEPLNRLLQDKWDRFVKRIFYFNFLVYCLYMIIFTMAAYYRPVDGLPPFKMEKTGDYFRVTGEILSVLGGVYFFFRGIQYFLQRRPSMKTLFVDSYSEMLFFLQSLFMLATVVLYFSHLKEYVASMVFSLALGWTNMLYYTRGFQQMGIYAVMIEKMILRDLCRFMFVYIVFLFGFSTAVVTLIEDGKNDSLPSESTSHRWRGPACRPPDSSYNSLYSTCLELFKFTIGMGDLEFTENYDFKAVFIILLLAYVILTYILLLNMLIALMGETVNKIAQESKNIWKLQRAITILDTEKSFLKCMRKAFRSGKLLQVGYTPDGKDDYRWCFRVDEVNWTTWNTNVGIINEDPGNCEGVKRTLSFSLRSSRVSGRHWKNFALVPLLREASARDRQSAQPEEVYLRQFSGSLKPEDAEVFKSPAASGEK
#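 Cells expressing TRPV1 were dye-loaded with Fluo-8 and read kinetically: 10 s baseline, 3 min after compound (agonist portion), then 2 min after EC20 capsaicin (allosteric enhancer portion). Calcium-bound dye fluorescence at 480/520 nm.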
# TRPML1 blocker – human mucolipin-1 channel inhibition. TRPML1-inducible cells, Ca2+ dye fluorescence, FDSS; hits give low values; inhibition of EC80 agonist-evoked calcium signal. activity change, negative = inhibition, % (test concentration not listed). 390,000 compounds, 0.02% hits; in the data active means activity change below about -50%; inconclusive means about -30% to -50%; inactive means above about -30%;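 note: stimulus is agonist 54-4 at its EC80 concentration; % is set by controls: 0 for no effect and ±100 for the full control effect; compound concentration not given in the record; the text of the record puts the active cut at -80%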
#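 Calcium fluorescence in TRPML1-DL cells induced overnight with Tet: a 110 s read after compound pin addition, then a 110 s antagonist read after challenge with 54-4 at 4 uM final (EC80).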
# Sfp PPTase inh – inhibitors of Bacillus subtilis Sfp phosphopantetheinyl transferase; AID 1490; Potency, µM, without a hit: max response, negative = inhibition, actives largely listed as inhibitors; Biochemical Sfp PPTase activity, qHTS; Q9F4F7; 310,000 compounds, 3.5% hits; active = well fitted inhibition curve with a large enough effect; inconclusive = small, poorly fitted or top-dose-only effect, or another doubt; inactive = no such curve, though single readings can be large or run the other way;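 note: the enzyme is Sfp with the accession as filed and its product quenches rhodamine fluorescence; potency is the fitted concentration of half-maximal effect; 0% = enzyme reaction without inhibitor and -100% = no enzyme wells; top concentration of the series not given in the record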
#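 Fluorescence-quenching assay: 15 nM Sfp-PPTase preincubated 15 min at room temperature with compound, then 5 uM rhodamine-CoA and 12.5 uM BHQ-2-labelled YbbR peptide added. Fluorescence (ex 525/em 598 nm) read at start and after 30 min; difference gives rate.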
# gsp antagonist – gsp mutant antagonism; gsp-mutant cells, cAMP HTRF, 30 min; control for the full effect not named in the record; Potency, µM (series often up to 76.9 µM), inactives show at the highest dose activity change, negative = inhibition, hits mostly inhibitors; 340,000 compounds, 0.4% hits; AID 624288; active = falling curve of any shape with a large fitted effect; inconclusive = falling curve, mostly with a smaller effect; inactive = flat or rising curve; cell line not stated here;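 note: intracellular cAMP measured with PDE inhibitor Ro 20-1724 present during compound exposure; potency is the fitted concentration of half-maximal effect; % is set by controls: 0 for no effect and ±100 for the full control effect; nearly all actives have a fitted effect of over 65% in size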
#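 HTRF cAMP read-out (cAMP-d2 plus anti-cAMP antibody-K in lysis buffer, 30 min RT). Before lysis, cells are exposed to compounds with […] for 30 min at 37C in DPBS containing Ca/Mg, BSA and Tween 20.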
# Menin-MLL FL inh – displaces fluorescein MLL peptide from human menin. AID 1766. 290,000 tested, under 10 active. FP activity change, % at 61.4 µM. Fluorescence polarization, fluorescein-MLL peptide displacement from menin; inconclusive = falling polarisation curve, or a change in total fluorescence; inactive = total fluorescence flat and polarisation flat or rising; no compound was filed as active; the % refers to the polarisation; negative = inhibition;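 note: % of control where 0% means no effect; inhibitors lower the polarisation; unlabelled MLL peptide was the positive control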
# gsp ag – agonists of gsp mutant (McCune-Albright syndrome); gsp mutant cells, cAMP HTRF, 30 min; control for the full effect not named in the record; Potency, µM (series often up to 76.9 µM), for the others: at the highest dose activation (cAMP increase), usual class: activators; 340,000 compounds, 0.13% hits; active = well fitted activation curve with a large enough effect; inconclusive = small, poorly fitted or top-dose-only effect, or another doubt; inactive = no such curve, though single readings can be large or run the other way; cell line not stated here;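 note: phosphodiesterase inhibitor Ro 20-1724 added with compounds to block cAMP breakdown; potency is the fitted concentration of half-maximal effect; nearly all actives have a fitted effect of over 60% in size; about a fifth of the inactives were tested at one dose only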
#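 Cells stably selected in G418 were plated at 2000/well, grown 16-24 hr, then given compounds in DMSO with the PDE inhibitor […] (300 uM solution added) for 30 min at 37C; cAMP was read by HTRF.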
# An asterisk follows results filed as active; ? = inconclusive; nt = not tested or not shown; & = joins results of further samples; [ ] = dose if it differs, or a comment.
no.	SMILES	ClpP mod	TRPV1 PAM	TRPML1 blocker	Sfp PPTase inh
1	COc1ccc(C(CNC(=O)COc2ccc(C)c(C)c2)N2CCCCC2)cc1 (stereo not drawn)	0.0%&-0.5%	-18	7&3	8%
2	CCOc1ccc(/C=C(/NC(=O)c2ccccc2)C(=O)NCCC(=O)O)cc1	nt	10	18	5%
3	CS(=O)(=O)Nc1ccc(S(=O)(=O)N2CCOCC2)cc1	-0.8%	-4	-1	18%
4	C=C1CCN([C@@H](Cc2ccccc2)C(=O)N2CCOCC2)S(=O)(=O)c2ccccc21	-3.3%	nt	13	nt
5	COc1[nH]c(/N=C/c2ccccc2)c(C#N)c1C#N	-1.8%&13%	12	-3	-9%
6	CCOC(=O)c1c(CSc2ccccc2)n(C)c2ccc(O)cc12	-3.4%	1	-1	-19%
7	O=C(COc1ccccc1)NC1CCS(=O)(=O)C1 (stereo not drawn)	-3.3%	1	24	26%
8	COc1ccc(CNC(=O)C2CCCN(S(=O)(=O)c3c(C)nn(C)c3C)C2)cc1 (stereo not drawn)	0.7%	-1	-2	17%
9	O=C(Nc1ccccc1)OCCOc1cccc(Br)c1	0.3%	-3	10	6%
10	O=C(C1CCCN(Cc2ccc(Cl)cc2)C1)N1CCCCC1 (stereo not drawn)	0.3%	-1	2	-3%
11	Cc1ccc(-n2[nH]c(C)c(/C=N/NC(=O)c3ccc(O)cc3O)c2=O)cc1	-9.0%	-4	-24	9%
12	Cc1nc(C)c(-c2ccc(SCC(=O)Nc3ccc(F)cc3F)nn2)s1	?	0	-21	3%
13	COc1ccc(CNC(=O)C/C(C)=N/NC(=O)COc2cccc(C)c2)cc1	nt	-8	-1	7%
14	COc1ccc(-n2c(-c3ccc(Br)cc3)c[n+]3c2SC(C)C3)cc1 (stereo not drawn)	nt	-1	41	12%
15	CCOC(=O)c1cc(-c2ccccc2)n(CCC(=O)NC(C)CC)c1C (stereo not drawn)	-1.5%	-1	57	18%

no.	gsp antagonist	Menin-MLL FL inh	gsp ag
1	4%	-4.2	2%
2	0%	-0.2	-6%[15.4 µM]
3	14%	-0.3	8%
4	-1%	nt	nt
5	5%	?	22%
6	-3%	0.0	12%
7	10%	-1.8	13%
8	1%	3.1	-13%
9	3%	1.3	-1%[15.4 µM]
10	12%	0.7	-23%
11	?	-2.6	9%
12	-19%	nt	8%
13	-11%	-7.7	-12%[15.4 µM]
14	16%	-2.6	-16%[15.4 µM]
15	-9%	7.5	-30%[inhibitor]

# The list continues:
no.	SMILES	ClpP mod	TRPV1 PAM	TRPML1 blocker	Sfp PPTase inh
16	O=C(NNC(=S)NCC1CCCO1)c1ccc(S(=O)(=O)N2CCOCC2)cc1 (stereo not drawn)	nt	-10	-7	7%
17	CCOC(=O)c1[nH]c2ccccc2c1NC(=S)Nc1cccc(C)c1C	?	-11	2	?
18	Cc1ccc2cc(COC(=O)c3cccc([N+](=O)[O-])c3)c(=O)[nH]c2c1	-7.5%	13	nt	-4%
19	Cc1cc(-c2ccc(S(=O)(=O)N3CCN(c4cccc(C)c4C)CC3)s2)on1	0.6%	-10	5	-5%
20	Cc1ccc(NC(=O)Cn2ncn3c(cc4ccccc43)c2=O)cc1F	-28%	3	8&-1	5%
21	CCOc1cc(/C=N/NC(=O)COc2ccc(Cl)cc2)ccc1OS(=O)(=O)c1ccccc1	-2.9%	14	24	9%
22	O=C(Nc1ccc(F)c(Cl)c1)C1CCN(c2ncnc3c2nc2n3CCCCC2)CC1	nt	-8	-5	14%
23	Cc1cc(C)n(-c2ccc(C(=O)OCc3ccccc3)cc2)n1	nt	-6	8	-8%
24	COc1ccccc1N1CCN(C(=O)CCNS(=O)(=O)c2ccc(Br)s2)CC1	0.5%	6	-23	15%
25	CC(=O)NC(Cc1cnc[nH]1)C(=O)O (stereo not drawn)	-2.8%	-4	4	20%
26	Fc1ccc(Oc2nccc(-c3ccc(Cl)cc3)n2)cc1	0.8%	8	27	-8%
27	COc1ccc(S(=O)(=O)N(C)c2ccc(C(=O)Nc3ccccc3C(=O)N3CCOCC3)cc2)cc1OC	-2.2%	-28	8	21%
28	COc1ccc(-c2[nH]ncc2CN2CCC(OCc3cccnc3)CC2)c(F)c1	nt	0	7	17%
29	CCn1nc(CC(C)C)cc1C(=O)N1CCCC(Nc2ccc(OC)cc2)C1 (stereo not drawn)	-0.7%	-10	4	7%
30	Cc1nc(NS(=O)(=O)c2ccccc2)sc1NC(=O)Nc1ccccc1	nt	9	-13	45µM*

no.	gsp antagonist	Menin-MLL FL inh	gsp ag
16	16%	0.2	-1%[15.4 µM]
17	?	5.7	?
18	0%	-1.2	?
19	4%	2.3	-3%
20	?	-0.7	-15%
21	-12%	-0.3	-9%
22	-6%	-2.1	-15%
23	?	2.6	17%[15.4 µM]
24	-14%	5.7	-29%
25	4%	2.9	-11%
26	6%	-3.3	-5%
27	4%	nt	?
28	3%	-2.1	-43%[inhibitor]
29	3%	-0.2	?
30	5%	-1.6	12%

# Results in ClpP mod, gsp ag and TRPML1 blocker (3 entries from above):
no. | molecule | ClpP mod | gsp ag | TRPML1 blocker
22 | O=C(Nc1ccc(F)c(Cl)c1)C1CCN(c2ncnc3c2nc2n3CCCCC2)CC1 | nt | -15% | -5
29 | CCn1nc(CC(C)C)cc1C(=O)N1CCCC(Nc2ccc(OC)cc2)C1 (stereo not drawn) | -0.7% | ? | 4
18 | Cc1ccc2cc(COC(=O)c3cccc([N+](=O)[O-])c3)c(=O)[nH]c2c1 | -7.5% | ? | nt

# Down the list, from the results shown.
# Compounds 3 to 11 in Sfp PPTase inh: 18%, nt, -9%, -19%, 26%, 17%, 6%, -3%, 9%
# Compounds 3 to 11 in TRPML1 blocker: -1, 13, -3, -1, 24, -2, 10, 2, -24
# Compounds 3 to 11 in gsp ag: 8%, nt, 22%, 12%, 13%, -13%, -1%[15.4 µM], -23%, 9%

# The results go on:
no.	SMILES	ClpP mod	TRPV1 PAM	TRPML1 blocker	Sfp PPTase inh
31	CC(C)c1ccc(S(=O)(=O)N2CCN(CC(O)CN3CCOCC3)CC2)cc1 (stereo not drawn)	0.7%	6	32	nt
32	CCN(CC)c1ccc(/C=C/C(=O)c2ccc(Br)cc2)cc1	1.2%	4	-14	6%
33	COc1ccc(N(CC(=O)O)S(=O)(=O)c2c(C)n[nH]c2C)cc1	0.4%	9	-8	8%
34	Cc1ccc(S(=O)(=O)N2CCN(C(=O)CCN3C(=O)c4ccccc4C3=O)CC2)cc1C	-1.8%	?	2	-1%
35	COc1ccc(Cl)cc1C(=O)NCCCN1CCOCC1	-0.1%	13	-3	-1%
36	COC(=O)C(C)Oc1ccc(=O)[nH]n1 (stereo not drawn)	-3.3%	-14	-1	2%
37	Nc1nonc1C(=O)N/N=C/c1cccc([N+](=O)[O-])c1	-0.1%	10	-11	4%
38	COc1cccc(CN2CCN(Cc3ccc(C#CC(C)(C)O)s3)CC2CCO)c1 (stereo not drawn)	nt	-14	-1	2%
39	Nc1c(-c2ccccc2)cnc2c(-c3ccccc3)cnn12	4.1%	4	35	18%
40	OC(COCc1ccccc1F)CN1CCCCC1 (stereo not drawn)	nt	nt	-17	nt
41	CCCCn1c(N)c(N(CC(C)C)C(=O)CCN2C(=O)C3CC=CCC3C2=O)c(=O)[nH]c1=O (stereo not drawn)	-0.5%	nt	15	nt
42	COCCN(C(=O)Cn1c(C(F)(F)F)nc2ccccc21)c1c(N)n(Cc2ccccc2)c(=O)[nH]c1=O	-1.0%	4	5	16%
43	CCOc1ccccc1N1CCN(CC(=O)N(C)CC(=O)Nc2ccccc2CC)CC1	-0.1%	nt	16	nt
44	CCOC(=O)c1cc2cc(OCc3ccccc3)ccc2nc1C	-23%	-10	nt	-25%
45	CCCOc1ccc(C2(C(=O)O)CCCC2)cc1	-2.1%	3	-15	10%

no.	gsp antagonist	Menin-MLL FL inh	gsp ag
31	9%	nt	-8%
32	0%	?	?
33	-12%	-1.2	-5%
34	-10%	1.2	1%[15.4 µM]
35	6%	-1.6	-3%[15.4 µM]
36	0%	2.5	-5%
37	-3%	-1.7	11%[15.4 µM]
38	5%	-1.5	-4%[15.4 µM]
39	1%	6.2	-6%
40	4%	nt	18%[15.4 µM]
41	nt	nt	-13%
42	8%	nt	0%
43	nt	nt	-86%[inhibitor]
44	-16%	0.8	-10%
45	-2%	2.4	-2%

# Later entries.
no.	SMILES	ClpP mod	TRPV1 PAM	TRPML1 blocker	Sfp PPTase inh
46	N#CCC(=O)Nc1ccc(C(=O)OC(C(=O)Nc2cc(C(F)(F)F)ccc2Cl)c2ccccc2)cc1 (stereo not drawn)	-17%	1	23	nt
47	C/C(=C\c1ccco1)C1C(C#N)=C(N)OC2=C1C(=O)CC(C)(C)C2 (stereo not drawn)	-3.3%	?	4	20µM*
48	Cc1ccc(C)c(Cn2cnc3c(oc4ccccc43)c2=O)c1	nt	2	32	10%
49	O=C(CSc1cccc2cccnc12)N/N=C/c1cccc(O)c1	4.3%	25	2	7%
50	COc1ccc(C(C)(C)C)cc1S(=O)(=O)NCC1CCCO1 (stereo not drawn)	nt	nt	13	nt
51	COc1cc(CNc2ncn[nH]2)ccc1OCc1ccccc1C	nt	-7	-5	7%
52	Cc1ccc(S(=O)(=O)N(CC(=O)N2CCOCC2)c2ccc(C(C)C)cc2)cc1	0.7%	-19	-3	5%

no.	gsp antagonist	Menin-MLL FL inh	gsp ag
46	-8%	nt	0%[15.4 µM]
47	-5%	?	?
48	-13%	1.4	?
49	-18%	2.4	10%
50	5%	nt	-3%
51	1%	3.0	36%
52	1%	nt	-1%[15.4 µM]

# Compounds shown so far containing a nitro group on carbon, in the order listed:
no.	SMILES	ClpP mod	TRPV1 PAM	TRPML1 blocker	Sfp PPTase inh
18	Cc1ccc2cc(COC(=O)c3cccc([N+](=O)[O-])c3)c(=O)[nH]c2c1	-7.5%	13	nt	-4%
37	Nc1nonc1C(=O)N/N=C/c1cccc([N+](=O)[O-])c1	-0.1%	10	-11	4%

no.	gsp antagonist	Menin-MLL FL inh	gsp ag
18	0%	-1.2	?
37	-3%	-1.7	11%[15.4 µM]
